HCMV UL50-53 inh – inhibitors of HCMV UL50-UL53 interaction, biochemical, HTRF; HCMV UL50-UL53 nuclear egress complex (human cytomegalovirus); normalized percent inhibition; inhibition, % (concentration not given with the values); 190,000 compounds, 0.15% hits;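 active means both replicates at 50% or more, plus weaker picks with an unusually low signal ratio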;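 further: stock transfer was 100 nL into about 20 µL; 0% = negative control wells and 100% = wells with untagged competitor protein; inactives centre near -12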
GIV-Gai inh – inhibitors of GIV peptide binding to Galpha-i3, primary screen, biochemical, fluorescence polarization, FITC-GIV GBA peptide, rat Galphai3; Guanine nucleotide-binding protein G(i) subunit alpha-3 (Rattus norvegicus), P08753; 90 min; stronger effect = lower value; scaled: aluminum fluoride 0%, vehicle 100%; percent of control (FP), % (concentration not given with the values); 210,000 compounds, 0.42% hits; AID 1224905, 2016;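 active means replicate mean at 85% of control or lower, very high polarization wells dropped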;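 further: wells of about 15 µL received 100 nL stock; the first replicate is given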
Target sequence (P08753 whole entry, looked up): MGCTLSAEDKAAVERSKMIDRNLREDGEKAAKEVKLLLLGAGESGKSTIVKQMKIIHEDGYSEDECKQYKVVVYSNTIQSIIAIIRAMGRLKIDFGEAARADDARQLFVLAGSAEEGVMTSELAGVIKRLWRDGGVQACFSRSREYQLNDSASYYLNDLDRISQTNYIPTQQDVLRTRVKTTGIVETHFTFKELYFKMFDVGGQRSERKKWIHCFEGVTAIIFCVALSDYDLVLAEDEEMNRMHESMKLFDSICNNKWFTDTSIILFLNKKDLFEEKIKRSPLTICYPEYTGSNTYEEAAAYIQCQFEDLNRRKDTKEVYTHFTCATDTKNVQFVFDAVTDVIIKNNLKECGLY
Sa growth inh – S. aureus growth inhibition at 42 and 30 °C, primary screen, LtaS inhibitor project, RN4220, two temperatures | OD600, 20 h, 42 °C; stronger effect = lower value | relative growth, % (concentration not given with the values) | 170,000 compounds, 0.53% hits;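 active means growth at 42 °C up to 50% and 20 or more points under that at 30 °C, or under 10% at both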;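 further: 300 nL library stock went into each well; scaled to the means of positive and negative controls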
Sa growth inh second temp – recorded beside Sa growth inh, whose call it bears; relative growth, %; measured here: growth at 30 °C;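 optical density after 20 h as mean of two plates; 100% = untreated growth and lower means inhibition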
* marks the source's active call; other numbers are inactive results; . = no result given; & = joins results of further samples.

The opening five entries (preview)
#1 Cc1nc(NCc2ccco2)c2cc(-c3ccccc3)sc2n1
#2 COC(=O)C1CCCN1C(=O)c1ccccc1 (stereo unspecified)
#3 COc1cc(NC2c3ccccc3C(=O)N2Cc2ccco2)cc(OC)c1OC (stereo unspecified)
#4 Cn1c(=O)cc(OCCCC(=O)N2CCCCC2)c2ccccc21
#5 CCOC(=O)c1c(NC(=O)Cc2ccc(OC)cc2)sc(C(=O)Nc2cccc(Cl)c2C)c1C
Compound	1	2	3	4	5
HCMV UL50-53 inh	-6	-4	-5	-14	-32
GIV-Gai inh	.	105	111	96	103
Sa growth inh	85	90	108	98	.
Sa growth inh second temp	90	106	92	86	.

Results, previewed entries included:
#1 Cc1nc(NCc2ccco2)c2cc(-c3ccccc3)sc2n1
#2 COC(=O)C1CCCN1C(=O)c1ccccc1 (stereo unspecified)
#3 COc1cc(NC2c3ccccc3C(=O)N2Cc2ccco2)cc(OC)c1OC (stereo unspecified)
#4 Cn1c(=O)cc(OCCCC(=O)N2CCCCC2)c2ccccc21
#5 CCOC(=O)c1c(NC(=O)Cc2ccc(OC)cc2)sc(C(=O)Nc2cccc(Cl)c2C)c1C
#6 Cc1ccc2nc(CN3CCN(C(=O)Nc4ccc(C)c(F)c4)CC3)oc2c1
Compound	1	2	3	4	5	6
HCMV UL50-53 inh	-6	-4	-5	-14	-32	.
GIV-Gai inh	.	105	111	96	103	105
Sa growth inh	85	90	108	98	.	94
Sa growth inh second temp	90	106	92	86	.	89

#7 Cc1sc2ncn(-n3cccc3)c(=O)c2c1-c1ccccc1
#8 CCc1cc2c(C)cc(=O)oc2cc1OCC(=O)NCC1CCCCC1
#9 O=C(CCCOc1ccc(Cl)cc1Cl)Nc1c[nH]c(=O)[nH]c1=O
#10 COc1cccc(-c2cc(C(=O)N3CCN(c4ccccc4)CC3)on2)c1
#11 CCCCN(C)C(=O)c1ccc(CS(=O)(=O)c2ccccc2C)o1
#12 CC(=O)N1CCCc2ccc(NC(=O)c3ccc(OC(C)C)cc3)cc21
Compound	7	8	9	10	11	12
HCMV UL50-53 inh	16	-2	-18	9	-2	.
GIV-Gai inh	.	.	97	109	97	102
Sa growth inh	86	95	97	129	129	84
Sa growth inh second temp	96	91	84	103	84	86

#13 Cc1cc(C(=O)COC(=O)CSc2nnc(NC3CCCCC3)s2)c(C)n1C1CC1
#14 CC(C)c1ccc(-n2cc[nH]c(=O)c2=O)cc1
#15 CCOC(=O)C1CCCN(C(=O)c2cc3ccc4ccc(C)[nH]c4c3n2)C1 (stereo unspecified)
#16 Cc1noc(C)c1S(=O)(=O)N=S(C)(=O)c1ccc(Cl)cc1 (stereo unspecified)
#17 O=C(CN1C(=O)CSc2ccc(C(F)(F)F)cc21)Nc1cccc(C(F)(F)F)c1
#18 CCc1ccccc1NC(=O)CCOc1ccccc1
Compound	13	14	15	16	17	18
HCMV UL50-53 inh	-8	-90	-7	1	16	-21
GIV-Gai inh	.	101	107	100	105	105&106
Sa growth inh	110	.	.	96	101	98&93
Sa growth inh second temp	92	.	.	84	96	87&86

#19 CCCCn1c(SC=O)nc2ccccc2c1=O
#20 CC(=O)N(C)c1ccc(NC(=O)c2cc(-c3ccccc3)nc3ccccc23)cc1
#21 Cc1cc(F)ccc1NC(=O)C1CCCN(S(=O)(=O)c2ccc3c(c2)CCCC(=O)N3)C1 (stereo unspecified)
#22 O=C(O)c1ccc(CO)cc1
#23 Cc1ccc(NC(=O)Cn2c(=O)oc3cc(S(=O)(=O)N4CCCCCC4)ccc32)cc1Cl
#24 O=C(c1ccccc1S(=O)(=O)NCc1ccccc1)N1CCCCC1
Compound	19	20	21	22	23	24
HCMV UL50-53 inh	-36	-20	.	-15	.	-7
GIV-Gai inh	.	98	105	.	102	110
Sa growth inh	90	.	90	132	109	99
Sa growth inh second temp	76	.	84	88	89	84

#25 C(=N\N1CCOCC1)/c1ccc2c(c1)OCCO2
#26 COCCNC(=O)C1CCC(CNS(=O)(=O)c2ccc3c(c2)CC(C)N3C(C)=O)CC1 (stereo unspecified)
#27 O=C(Nc1cccc(Cl)c1)c1cc(F)cc2c1OCOC2
#28 CCN(CC)CCn1c2c(c(SCC(=O)Nc3cc(C)on3)nc1=O)CCCC2
#29 CC1CCN(C(=O)CSc2nnc(-c3ccc(F)cc3)o2)CC1
#30 O=C(CCn1nc(-c2ccc(Cl)cc2)c2ccccc2c1=O)NCCN1CCOCC1
Compound	25	26	27	28	29	30
HCMV UL50-53 inh	-29	.	-4	-29	-32	.
GIV-Gai inh	.	99	99	99	98	102
Sa growth inh	101	101	104	93	.	105
Sa growth inh second temp	88	84	106	86	.	88

#31 CC(C)Oc1ncc(C(F)(F)F)cc1Cl
#32 COc1cccc(CNC(=O)CCc2c(C)c3cc4c(C)c(C)oc4cc3oc2=O)c1
#33 COc1ccc(OCc2nnc(SCC(=O)N(C3CCCCC3)C3CCCCC3)o2)cc1
#34 Cc1ccc(-n2nc3c(=O)n(CC(=O)Nc4ccccc4F)nc(C)c3c2C)c(C)c1
#35 CN1Cc2ccc(CN3C(=O)c4ccccc4C3=O)cc2NC1=O
#36 CSc1ncnc(SC)c1Br
Compound	31	32	33	34	35	36
HCMV UL50-53 inh	3	19	-13	-21	-9	-1
GIV-Gai inh	.	98	103	102	106	102
Sa growth inh	90	87	129	111	98	104
Sa growth inh second temp	95	95	97	89	106	94

#37 COCCNC(=O)c1cccc2c1-c1ccccc1C2=O
#38 CN1C(=O)S/C(=C/c2ccc(-c3ccc(C(=O)O)c(Cl)c3)o2)C1=O
#39 Cc1ccc2oc(-c3ccccc3C)nc2c1
#40 COc1ccc(Nc2ccc(S(=O)(=O)N3CCCC3)cn2)cc1O
#41 O=C(O)CP(=O)(O)O
#42 O=C(CNc1ccc(Br)cc1F)NCc1ccco1
Compound	37	38	39	40	41	42
HCMV UL50-53 inh	-108	-58	17	-27	-14	-36
GIV-Gai inh	103	106	104	.	101	.
Sa growth inh	97	58	83	75	.	95
Sa growth inh second temp	97	22	87	88	.	93

5 structures already listed, sorted by count of non-hydrogen atoms, smallest number first.
#36 CSc1ncnc(SC)c1Br
#39 Cc1ccc2oc(-c3ccccc3C)nc2c1
#42 O=C(CNc1ccc(Br)cc1F)NCc1ccco1
#37 COCCNC(=O)c1cccc2c1-c1ccccc1C2=O
#38 CN1C(=O)S/C(=C/c2ccc(-c3ccc(C(=O)O)c(Cl)c3)o2)C1=O
Compound	36	39	42	37	38
HCMV UL50-53 inh	-1	17	-36	-108	-58
GIV-Gai inh	102	104	.	103	106
Sa growth inh	104	83	95	97	58
Sa growth inh second temp	94	87	93	97	22

The list continues.
#43 CCC1CN(C(=O)Nc2cccc(OC)c2)c2ccccc2O1 (stereo unspecified)
#44 COc1ccccc1NC(=O)N(Cc1nc(-c2ccc(Cl)cc2)no1)C(C)C
#45 O=C(Cn1cnc2c(nnn2-c2cccc(Cl)c2)c1=O)NC1CCCCC1
#46 O=C(CSc1nc(O)cc(=O)[nH]1)N1c2ccccc2Sc2ccccc21
#47 O=C(CN1CCC(n2nnc3cc(F)ccc32)CC1)NCCc1ccccc1
#48 NC(=O)COC(=O)CCc1nc2ccccc2n1-c1ccccc1
Compound	43	44	45	46	47	48
HCMV UL50-53 inh	2	-11	.	.	13	-20
GIV-Gai inh	107	104	102	108	106	.
Sa growth inh	73	73	94	71	80	87
Sa growth inh second temp	95	71	100	58	97	85

#49 CN(C1CCCCC1)S(=O)(=O)c1ccc2c(c1)NC(=O)CO2
#50 COc1ccc2c(c1)-c1c(ssc1=S)C(C)(C)N2C(=O)CSc1ncn[nH]1
#51 Cc1cccc(N(CC(=O)O)S(C)(=O)=O)c1
#52 O=C(CC1CCN(C(=O)Nc2cccc(Cl)c2)CC1)NCc1cccnc1
#53 COc1ccc(Cn2c(C(=O)O)c(CNCCc3ccco3)c3ccc(OC)cc32)cc1
#54 O=C(Nc1ccccc1O)c1ccccc1
Compound	49	50	51	52	53	54
HCMV UL50-53 inh	-24	-107	-36	-34	.	-25
GIV-Gai inh	108	100	104	100	109	.
Sa growth inh	.	.	90	.	91	97
Sa growth inh second temp	.	.	87	.	102	72

#55 Nc1cc(-c2cc(-c3ccccc3)c(C(F)(F)F)s2)[nH]n1
#56 Cc1cc2c(c(C)nn2-c2ccccc2)c(=O)o1
#57 CCOC(=O)Cc1csc(NC(=O)CCN2C(=O)c3ccccc3C2=O)n1
#58 N#CC1(C#N)C(c2ccccc2)OC23CCCCC2C1(C#N)C(=N)O3 (stereo unspecified)
#59 CC(Sc1nccn1C)C(=O)NC1(C#N)CCCCC1 (stereo unspecified)
#60 CC(C)c1nnc2c(SCc3cccc(F)c3)nc3ccccc3n12
Compound	55	56	57	58	59	60
HCMV UL50-53 inh	-1	-8	-48	-58	-22	-26
GIV-Gai inh	103	106	104	95	.	107
Sa growth inh	116	116	.	101	63	.
Sa growth inh second temp	98	75	.	81	81	.

#61 CCc1ccc(-c2cc3c(=O)n(CC(=O)NCC4CCCO4)ncn3n2)cc1 (stereo unspecified)
#62 O=C(Nc1ccccc1)NC(c1ccccc1)c1nnc(-c2ccccc2)o1 (stereo unspecified)
#63 COCc1nn2cc(-c3ccc(C)cc3)nc2s1
#64 Cc1ccc(-n2nc(CO)c(C(=O)NC(C)CCCc3ccccc3)n2)cc1C (stereo unspecified)
#65 Cc1cc(C)cc(-n2cnc3ccccc3c2=O)c1
#66 Cc1nn(-c2ccccc2)c2c1P(=O)(O)/C(=C1/N(C)c3ccccc3C1(C)C)C=N2
Compound	61	62	63	64	65	66
HCMV UL50-53 inh	8	-22&16	13	12	-10	-42
GIV-Gai inh	101	113&100	110	105	101	.
Sa growth inh	.	95	115	85	101	78
Sa growth inh second temp	.	98	96	96	66	70

#67 Cc1cc(Cc2ccc(N)c(C)c2)ccc1N
#68 O=C(CSc1nnc(-c2ccncc2)n1-c1ccccc1)c1ccc(NS(=O)(=O)c2ccccc2)cc1
#69 O=C(O)CC1NC(=O)c2ccc(Br)cc21 (stereo unspecified)
#70 COc1cc(NC(=O)CCCc2nnc3n(C)c(=O)c4sccc4n23)cc(OC)c1OC
#71 N#CC(Sc1ccccc1)c1ccc(Cl)cc1 (stereo unspecified)
#72 C=CCn1c(SCC(=O)Nc2ccccc2)nc2sc(CC)cc2c1=O
Compound	67	68	69	70	71	72
HCMV UL50-53 inh	-2	-12	-20	.	-14	-1
GIV-Gai inh	.	99	103	99	105	101&98
Sa growth inh	110	.	77	100	.	.
Sa growth inh second temp	97	.	92	88	.	.

#73 O=C(/C=C/c1ccco1)Nc1ccc(S(=O)(=O)N2CCCC2)cc1
#74 Oc1c(C(c2ccc(Cl)cc2)N2CCOCC2)sc2nc(-c3ccco3)nn12 (stereo unspecified)
#75 CN(C(=O)Cn1ncc2c1-c1ccccc1OC2)C1CCCCC1
#76 CC1(C)CCCC2=C1CC(C(=O)O)C(C(=O)O)C2 (stereo unspecified)
#77 CCOc1c(N2CCOCC2)c(=O)c1=O
#78 COc1cc(NC(=O)CCc2c(C)nn(-c3ccc4nncn4n3)c2C)cc(OC)c1OC
Compound	73	74	75	76	77	78
HCMV UL50-53 inh	-20	.	.	-6	-43	.
GIV-Gai inh	.	104	105	.	98	111
Sa growth inh	87	110	121	121	.	94
Sa growth inh second temp	81	102	99	99	.	86

Ordered by value in GIV-Gai inh (smallest number first): three of the compounds above
No.	Compound	GIV-Gai inh	Sa growth inh second temp
74	Oc1c(C(c2ccc(Cl)cc2)N2CCOCC2)sc2nc(-c3ccco3)nn12 (stereo unspecified)	104	102
75	CN(C(=O)Cn1ncc2c1-c1ccccc1OC2)C1CCCCC1	105	99
78	COc1cc(NC(=O)CCc2c(C)nn(-c3ccc4nncn4n3)c2C)cc(OC)c1OC	111	86

New compounds follow.
#79 COc1cccc(N2CCN(c3ncnc4c3c(-c3ccccc3)cn4-c3ccc(C)cc3)CC2)c1
#80 CCOC(=O)c1ccc(NC(=O)c2nn(C)c3c2COc2ccccc2-3)cc1
#81 CCOC(=O)c1c(S(=O)(=O)NCC(=O)Nc2ccc(F)cc2C)c(C)n(C)c1C
#82 CCN1CCN(C(=O)C(N)Cc2ccccc2)CC1 (stereo unspecified)
#83 O=C1C2Cc3ccccc3CN2C(=S)N1Cc1ccccc1 (stereo unspecified)
#84 CC(=O)Nc1nc(-c2ccccc2)nc2sc(C#N)c(C)c12
#85 COc1ccc(S(=O)(=O)NCc2cccnc2)cc1C(=O)N1CCOCC1
#86 Cc1nnc(SCC(=O)OC2CC(C)CCC2C(C)C)[nH]c1=O (stereo unspecified)
#87 CCOC(=O)c1cc(-c2cc(OC)ccc2OC)no1
Compound	79	80	81	82	83	84	85	86	87
HCMV UL50-53 inh	.	3	.	-11	-16	8	19	-5	.
GIV-Gai inh	114	99	106	.	.	103	105	101	103
Sa growth inh	127	100	86	90	103	101	96	113	79
Sa growth inh second temp	101	96	91	95	89	103	104	84	93

Bioassay records: PubChem, ICCB-Longwood Screening Facility, Harvard Medical School
